RE007 growth inh = qHTS Assay for Inhibitors of the HIV-1 protein Vpr; S. pombe RE007 Vpr strain, BacTiter-Glo ATP luminescence, 24 h; control for the full effect not named in the record; Potency, µM (highest dose often 92.2 µM), without a hit: top-dose activity change, negative = less growth; 360,000 tested, 0.21% active; active = well fitted falling curve with a large enough effect; inconclusive = small, poorly fitted or top-dose-only effect; inactive = no such curve, though single readings can be large or run the other way;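 further: nearly all actives have a fitted effect of over 50% in size; the assay follows cell death caused by Vpr and the record does not say whether a fall means rescue or toxicity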
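Fission yeast strain RE007, carrying one chromosomally integrated HIV-1 vpr copy, was seeded at OD 0.01 in PMG+AL medium with 23 nL pinned compound. After 24 h at 30 °C and 99% humidity, viability was read by BacTiter-Glo luminescence.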
2A StopGo = High Throughput Screening for Foot and Mouth Disease Virus Antivirals | human cells with a luciferase reporter of 2A StopGo recoding; control for the full effect not named in the record | Potency, µM (series often up to 57.9 µM), without a hit: at the highest dose signal change, negative = less light | 410,000 tested, 1.2% active; active = well fitted falling curve with a large enough effect; inconclusive = small, poorly fitted or top-dose-only effect; inactive = no such curve, though single readings can be large or run the other way; tested in HEK293T cells; further: nearly all actives have a fitted effect of over 45% in size; luciferase light after 4 h
An asterisk follows results filed as active; ? = inconclusive; [ ] = dose if it differs, or a comment. On the % scale 0 is the no-effect control and ±100 the full control effect; potency means the concentration at half of the fitted maximal effect. This is a subset; count on the stated rates, not on these rows.

molecule	RE007 growth inh	2A StopGo
COc1ccc(C(=O)N2CCC(C)(C(=O)O)C2)cc1OC (stereo not given)	12%	-14%
CCCCNC(=O)c1cc(-c2ccccc2)sc1N	-15%	-2%
CC(=O)NC(c1ccc(F)c(F)c1)c1nc(-c2ccccc2)cs1 (stereo not given)	-9%	-14%
CCN(CC)CC(=O)NC1CCCc2c1cnn2-c1cc(F)cc(F)c1 (stereo not given)	6%	35%[activator]
Cc1cc(N2CCN(C(C(=O)NC3CCCC3)c3ccco3)CC2)c2ccccc2n1 (stereo not given)	-26%	-17%
Cc1ccccc1NC(=O)CN1CCCC1	13%	-18%
CCN(CC1CCCN(CCc2cccc(F)c2)C1)C(=O)c1ccoc1C (stereo not given)	-10%	?
O=C(NC1CCCCC1)C1c2ccccc2OCC(=O)N1CC(F)(F)F (stereo not given)	3%	0%
COc1ccccc1N1CCN(S(=O)(=O)CCNC(=O)COc2ccccc2)CC1	-6%	-14%
CCOc1ccc(C2CC=C(C(C)=O)CN2S(=O)(=O)c2ccc(C)cc2)cc1 (stereo not given)	9%	5%
COC(=O)[C@]12CCCCC=C1N(Cc1ccc3c(c1)OCO3)C(=O)[C@H](CC(=O)NCCc1ccccc1OC)C2	1%	-20%
COc1cc2c(-c3ccccc3)c(C)oc2cc1/C=N/NC(N)=S	4%	-16%
CCc1nc2c(OCc3ccccc3C)cccn2c1N(C)C(=O)C1CC1	-14%	-13%
Cc1c(C(=O)NCc2ccc3c(c2)OCCO3)sc(=O)n1Cc1ccc(S(=O)(=O)N(C)C)cc1	13%[18.4 µM]	14µM*
COc1ccc(NC(=O)C2Cc3c(-c4ccc(Cl)cc4)ccnc3O2)cc1 (stereo not given)	1%	-28%
Cc1noc(C)c1NC(=O)N(C)C[C@@H]1Oc2ncc(Br)cc2C(=O)N([C@@H](C)CO)C[C@H]1C	7%	-14%
O=C1[C@H]2[C@@H](c3ccccc3)N[C@]3(CCCN(Cc4ccc(C(F)(F)F)cc4)C3=O)[C@H]2C(=O)N1Cc1ccccc1	6%	?
COc1ccc2nc(N3C(=O)C(O)=C(C(=O)c4ccco4)C3c3ccc(OC)c(OC)c3)sc2c1 (stereo not given)	-24%	-27%
COc1cc(C2c3cc4c(cc3C3OC(=O)C2C3CO)OCO4)cc(OC)c1OC (stereo not given)	-24%	-5%
CCOC(=O)[C@]12CCC=C1N(Cc1ccccc1)C(=O)[C@H](CC(=O)N1CCSCC1)C2	7%	-6%
Cc1cc2c(cc1C)-n1nnnc1C(N1CCN(C(=O)OCc3ccccc3)CC1)C(=O)N2 (stereo not given)	-3%	?
CCN(CC)S(=O)(=O)c1ccc(N2CCOCC2)c(NC(=O)c2cccc3c(=O)c(C)c(-c4ccccc4)oc23)c1	-5%	?
CCOc1ccc(Cl)cc1-c1cc(C(=O)NCc2ccccc2OC)[nH]n1	-2%	?
CC(C)NC(=O)C1(C)CCN1C(=O)c1ccc(F)c(Cl)c1 (stereo not given)	-11%	0%
CCOc1ccc(OCC(=O)Nc2cc(Cl)ccc2-n2cncn2)cc1	-1%	5%
C/C=C(\C)C(=O)NCCN1C2=NC[C@H](Cc3ccccc3)N2C[C@@H]1Cc1ccc(OC)cc1	-5%	-11%
O=C(Nc1ccn(CCCNCc2ccccc2)c(=O)n1)OCc1ccccc1	7%	11%
Cc1cccc(C(O)c2ncc(-c3ccccc3Cl)[nH]2)c1C (stereo not given)	-2%	46%[activator]
Cc1ccc(S(=O)(=O)N2CCCCC2)cc1NC(=O)CCNC(=O)c1ccccc1Cl	17%	-12%
COc1cc(CNc2ncnc3c2ncn3[C@H]2CN(Cc3ccc(F)cc3)C[C@@H](CO)O2)cc(OC)c1OC	7%	?
CCCCCCCCN1C(=O)[C@H](CC(=O)N2CCSCC2)C[C@@]2(C(=O)OCC)CCCC=C12	-4%	2%
CC1(C(=O)NS(=O)(=O)c2cccs2)CCN1C(=O)C1CCCCC1 (stereo not given)	16%	-11%
O=c1[nH]c(=S)ccn1C1OC(CO)C(O)C1O (stereo not given)	5%	-12%
COc1cccc(-c2ccc3c(c2)O[C@@H](CN(C)Cc2cncnc2)[C@@H](C)CN([C@H](C)CO)S3(=O)=O)c1	-4%	1%
Cc1cc2[nH]c(=O)c(=O)[nH]c2cc1S(=O)(=O)NCC(C)c1ccccc1 (stereo not given)	-11%	3%
Cc1nc(C(F)(F)F)ccc1C(=O)N1CCC1(C)C(=O)NS(=O)(=O)c1c(C)noc1C (stereo not given)	-10%[18.4 µM]	-13%
COc1ccccc1-c1cncc(NC(C)=O)n1	6%[18.4 µM]	-3%
Cc1ccc(S(=O)(=O)N(CCCc2c(C)nc(N)[nH]c2=O)Cc2ccc([N+](=O)[O-])cc2)cc1	-9%	16%
COc1cccc(C(C)(O)c2nc(-c3cnc4ccccc4c3)cs2)c1 (stereo not given)	-16%[18.4 µM]	?
O=C(C(=O)N1CCC(c2ccccc2)CC1)c1ccc(F)c(F)c1	-6%	10%
COC(=O)[C@@]12C[C@@H](CC(=O)N3CCN(C(=O)C4CC4)CC3)C(=O)N(CCc3ccc(OC)c(OC)c3)C1=CCC(C)(C)C2	?	-9%
COc1cccc(-c2ccc3c(c2)C2CC3CCN2C(C)=O)c1 (stereo not given)	-11%	?
CC(=O)NC(c1cccc(F)c1)c1nc(-c2cnc3ccccc3c2)cs1 (stereo not given)	5%[18.4 µM]	18%
COC(=O)C[C@@H]1OC[C@H](C(C)C)N1S(=O)(=O)c1ccc(C)cc1	10%	-8%
CC(=O)Nc1ccc(NC(=O)C2Cc3c(-c4cccc(C(C)=O)c4)ccnc3O2)cc1 (stereo not given)	-12%	-16%
CCNC(=O)N(C)[C@H]1C[C@H]2c3[nH]c4ccccc4c3CCN2C[C@H]1[C@H](C)O	-8%	-12%
CC(C)Oc1cc(F)ccc1-c1cc(C(=O)NCCc2ccncc2)[nH]n1	-17%	0%
CC1C(=O)N(Cc2cn(Cc3ccco3)nn2)CCS(=O)(=O)N1Cc1ccc(-c2ccc(Cl)cc2)cc1 (stereo not given)	-5%	?

A portion from further up, for reference:
molecule	RE007 growth inh	2A StopGo
O=c1[nH]c(=S)ccn1C1OC(CO)C(O)C1O (stereo not given)	5%	-12%
COc1cccc(-c2ccc3c(c2)O[C@@H](CN(C)Cc2cncnc2)[C@@H](C)CN([C@H](C)CO)S3(=O)=O)c1	-4%	1%
Cc1cc2[nH]c(=O)c(=O)[nH]c2cc1S(=O)(=O)NCC(C)c1ccccc1 (stereo not given)	-11%	3%
Cc1nc(C(F)(F)F)ccc1C(=O)N1CCC1(C)C(=O)NS(=O)(=O)c1c(C)noc1C (stereo not given)	-10%[18.4 µM]	-13%
COc1ccccc1-c1cncc(NC(C)=O)n1	6%[18.4 µM]	-3%
Cc1ccc(S(=O)(=O)N(CCCc2c(C)nc(N)[nH]c2=O)Cc2ccc([N+](=O)[O-])cc2)cc1	-9%	16%
COc1cccc(C(C)(O)c2nc(-c3cnc4ccccc4c3)cs2)c1 (stereo not given)	-16%[18.4 µM]	?
O=C(C(=O)N1CCC(c2ccccc2)CC1)c1ccc(F)c(F)c1	-6%	10%
COC(=O)[C@@]12C[C@@H](CC(=O)N3CCN(C(=O)C4CC4)CC3)C(=O)N(CCc3ccc(OC)c(OC)c3)C1=CCC(C)(C)C2	?	-9%
COc1cccc(-c2ccc3c(c2)C2CC3CCN2C(C)=O)c1 (stereo not given)	-11%	?
CC(=O)NC(c1cccc(F)c1)c1nc(-c2cnc3ccccc3c2)cs1 (stereo not given)	5%[18.4 µM]	18%
COC(=O)C[C@@H]1OC[C@H](C(C)C)N1S(=O)(=O)c1ccc(C)cc1	10%	-8%
CC(=O)Nc1ccc(NC(=O)C2Cc3c(-c4cccc(C(C)=O)c4)ccnc3O2)cc1 (stereo not given)	-12%	-16%

Next section.
molecule	RE007 growth inh	2A StopGo
CCOc1ccccc1OCCCC(=O)Nc1cc(S(=O)(=O)N2CCCCC2)ccc1C	-3%	-22%
CCOc1cc(C(=O)N/N=C/c2cn(-c3ccccc3)nc2-c2cc3ccccc3o2)cc(OCC)c1OCC	-4%	37%[activator]
CCCNC(=O)C1(C)CCN(C(=O)c2ccc3ccccc3c2)C1 (stereo not given)	13%	-12%
CCN(CC(=O)Nc1ccc2c(c1)OCCO2)C(=O)/C=C/c1cc(Br)ccc1OC	15%	-25%
O=C(CCC(C(=O)c1ccccc1)c1ccccc1)c1ccccc1 (stereo not given)	18%	4%
COc1ccc(NC(=O)c2cc(=O)[nH]c3ccccc23)cc1S(=O)(=O)N1CCOCC1	7%	-8%
S=C(NCCc1ccccc1)N1Cc2cc(Br)ccc2-n2nncc2C1	4%	18%
CCc1nc2c(OCCc3cccc(OC)c3)cccn2c1N(C)C(=O)c1ccc(C)cc1	-10%	-14%
COc1ccc(-n2cnnc2SCC(=O)NC2CC2)cc1	7%	0%
CCCC1NC(=O)c2cccnc2-n2c1nc1ccc(C)cc1c2=O (stereo not given)	4%	-14%
O=C(C=Cc1ccccc1F)c1ccccc1	?	17%
CN1/C(=C/C=C/c2n(C)c3cc([N+](=O)[O-])c([N+](=O)[O-])cc3[n+]2C)C(C)(C)c2ccccc21	?	?
CC(=O)Nc1ccc(NCCc2ccco2)cc1	9%	-2%
O=C(O)C[C@H]1c2cc(F)ccc2S(=O)(=O)N1C1CCCC1	4%	-12%
CC1(C(=O)Nc2cccc3cccnc23)CCN1Cc1cccc2c1OCO2 (stereo not given)	7%	?
O=c1ccn([C@@H]2O[C@H](CNS(=O)(=O)C3CC3)[C@@H](O)[C@H]2O)c(=O)[nH]1	-15%	-14%
CCc1nc2c(OCc3ccc(OC)cc3)cccn2c1N(C)C(=O)c1ccc(OC)cc1	-5%	3%
CN(Cc1ccccc1)C(=O)[C@@H]1CCCN1C(=O)[C@@H]1CCCN1C(=O)OC(C)(C)C	3%	-21%
COc1cc(C=NNc2ccccc2[N+](=O)[O-])cc(OC)c1OC	5%	0%
CC(C)c1cccc(-c2csc(C(C)(O)c3ccncc3)n2)c1 (stereo not given)	9%[18.4 µM]	?
CC1(C(=O)NS(=O)(=O)C2CC2)CCCN(C(=O)C2(c3ccc(Cl)cc3)CCCC2)C1 (stereo not given)	-3%	2%
CCOC(=O)CNC(=O)N1Cc2cc(N3CCCCC3)ccc2-n2nncc2C1	-8%	-1%
COC(=O)C1=C(c2ccccc2)C[C@@H]2CC[C@H]1N2C(=O)N1CCCCC1	0%	0%
CCCN(C)C[C@@H]1OCCCC[C@@H](C)Oc2ccc(NC(=O)c3ccccc3)cc2C(=O)N([C@H](C)CO)C[C@@H]1C	-5%	27%
O=C(Nc1ccc(F)cc1)C(c1ccccc1OC(F)(F)F)N1CCN(C(=O)c2ccco2)CC1 (stereo not given)	-13%	-23%
CSCCC(c1nnnn1Cc1ccccc1)N1CCC(n2c(=O)[nH]c3ccccc32)CC1 (stereo not given)	4%	-26%
CC1CN=C(NS(=O)(=O)c2ccccc2)N1 (stereo not given)	-14%	-6%
CC1CCN(S(=O)(=O)N2CCC(C(=O)NC(C)c3ccccc3)CC2)CC1 (stereo not given)	-12%	-7%
COc1cc(O)c2c(c1)/C=C/C[C@H](O)[C@H](O)C(=O)CCC[C@H](C)OC2=O	-5%	-15%
CCCCCCCCN1C(=O)[C@H](CC(=O)NCCCC)C[C@@]2(C(=O)OCC)CCCC=C12	23%	-22%
O=C1NCCC12C(=O)Nc1ccccc12 (stereo not given)	-1%	-14%
CCN1CCN(c2ccc(NC(=O)CC3OC(=O)c4ccccc43)cc2C)CC1 (stereo not given)	-2%	65%[activator]
COCCNC(=O)C1CCCN(C(=O)c2ccc(SC(F)(F)F)cc2)CC1 (stereo not given)	-4%	-16%
C[C@H]1CNC(=O)c2c(C(=O)N[C@@H](Cc3c[nH]c4ccccc34)C(=O)OC(C)(C)C)ncn21	11%	-17%
Cc1cc(-c2nnn(CCCOC(C)(C)C)c2C)ccc1-c1cn(CCCOC(C)(C)C)nn1	7%	?
COc1cccc(/C=C2\SC(=S)N(CCCC(=O)N3CCOCC3)C2=O)c1	1%	19%
CC1(Cc2ccccc2Cl)C(=O)Nc2c(Cl)cccc21 (stereo not given)	1%	0%
O=C(NCc1cccnc1)c1cc(C2CCCN(S(=O)(=O)c3cccc4cccnc34)C2)on1 (stereo not given)	-14%	-19%
O=C(CSc1nc2ccccc2c(=O)n1-c1ccc(F)cc1F)NC1CCS(=O)(=O)C1 (stereo not given)	-2%	-2%
COc1ccc(C(CNC(=O)c2cccc(NS(=O)(=O)c3ccccc3)c2)N2CCCC2)cc1 (stereo not given)	-13%	-5%

Screening data from PubChem.
